High-throughput results from PubChem BioAssay.
GALR2 agonist: GALR2 receptor agonists, primary screen, cell-based; Galanin receptor type 2 (Homo sapiens), O43603; GALR2-expressing cells, agonist activation read-out; activation, %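 (tested at 5 µM)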; 140,000 tested, 0.48% active; AID 803, 2007;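 active means above mean plus 3 SD of all compounds, about 5% in these data, not always enough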;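 further: 0% = vehicle buffer wells and 100% = reference agonist at full effect; tested in CHO reporter cells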
Target sequence (O43603 whole entry, looked up): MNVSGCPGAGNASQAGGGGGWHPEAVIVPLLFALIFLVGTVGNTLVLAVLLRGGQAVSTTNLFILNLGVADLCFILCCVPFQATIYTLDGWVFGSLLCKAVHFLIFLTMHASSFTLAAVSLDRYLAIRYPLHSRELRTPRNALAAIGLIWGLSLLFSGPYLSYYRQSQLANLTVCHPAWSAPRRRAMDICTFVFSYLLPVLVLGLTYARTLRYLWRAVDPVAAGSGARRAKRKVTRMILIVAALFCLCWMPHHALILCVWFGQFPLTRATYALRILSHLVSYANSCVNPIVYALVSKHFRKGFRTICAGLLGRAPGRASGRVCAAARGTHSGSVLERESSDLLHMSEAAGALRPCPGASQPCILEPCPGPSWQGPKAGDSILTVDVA
PKD1 kinase inh: inhibitors of human PKD1 kinase, biochemical, fluorescence polarization; Serine/threonine-protein kinase D1 (Homo sapiens), Q15139; PKD1 kinase fluorescence polarization assay; inhibition, %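 (about 10 µM by stock and volumes)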; 200,000 tested, 0.056% active; AID 797, 2007;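 active means inhibition of 50% or more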;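 further: controls were vehicle for no effect and a reference inhibitor for full effect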
INS promoter inh: inhibitors of insulin promoter-driven GFP, primary screen, imaging, TRM-6 cells (human fetal islet line), eGFP reporter, cell count | reporter expression induced with tamoxifen | inhibition, % at 2 µM | 130,000 tested, 0.9% active | AID 1273, 2008;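 active means inhibition above the mean plus 3 SD, with well images judged a real hit on visual review, cut at about 60% in these data, passing the limit was not always enough; inconclusive means inhibition over the cutoff but images rejected on review; inactive means inhibition not above the cutoff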
RGS16-Gao: modulators of RGS16 binding to Galphao, primary screen, biochemical, human proteins, multiplexed bead flow cytometry; Regulator of G-protein signaling 16 (Homo sapiens) + Guanine nucleotide-binding protein …; bead-based flow cytometry RGS16-Galphao binding, fluorescence; actives lie on both sides; binding response (% of control), % at 10 µM; 220,000 tested, 0.38% active;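 active means below 25% or above 175%, edge rows of some plates excepted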;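 further: Galphao activated by GDP with aluminum fluoride before binding; 100% = wells without compound and 0% = beads without RGS; some results beyond the cut were filed as inactive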
Target sequence (O15492 whole entry, looked up): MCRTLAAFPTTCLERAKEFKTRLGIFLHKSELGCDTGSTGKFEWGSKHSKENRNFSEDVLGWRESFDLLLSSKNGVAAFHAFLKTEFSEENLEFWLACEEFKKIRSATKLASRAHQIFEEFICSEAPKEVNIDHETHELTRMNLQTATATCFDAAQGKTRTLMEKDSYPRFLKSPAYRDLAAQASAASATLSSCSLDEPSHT
Target sequence (P09471 whole entry, looked up): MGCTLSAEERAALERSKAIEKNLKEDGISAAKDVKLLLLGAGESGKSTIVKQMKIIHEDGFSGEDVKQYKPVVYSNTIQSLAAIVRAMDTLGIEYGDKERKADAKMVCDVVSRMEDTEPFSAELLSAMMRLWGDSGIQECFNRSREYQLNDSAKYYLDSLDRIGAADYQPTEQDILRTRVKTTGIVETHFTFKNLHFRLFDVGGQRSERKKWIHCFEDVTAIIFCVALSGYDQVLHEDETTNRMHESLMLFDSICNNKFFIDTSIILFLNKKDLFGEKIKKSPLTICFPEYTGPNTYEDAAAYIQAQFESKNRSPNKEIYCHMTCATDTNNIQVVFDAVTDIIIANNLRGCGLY
HSV augment: enhancers of HSV replication in host cells, fold increase, host cell viability; HSV replication augmentation in cells; maximum fold increase; 220,000 tested, 0.005% active; AID 1956, 2009;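 active means peak rise of 1.5-fold or more in the series; inconclusive means self-fluorescent or not available for retest; tested in PC3 cells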;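 further: first round at 10 µM; read as green reporter fluorescence; hits show the peak of a series up to 25 µM; 1 = signal of infected wells without compound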
INS promoter inh cell count: also measured in INS promoter inh; calls as there; normalized cell count, %; measured here: cell count, toxicity; reference of the scale not given here;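 cells exposed to compound for 48 h; stained nuclei by imaging scaled within each plate; lower means fewer cells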
HSV augment primary fold: recorded beside HSV augment, whose call it bears; fold increase; compound at 10 µM; measured here: primary screen fold increase 10 uM; tested in PC3 cells;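 GFP signal in the first replicate; 1 = infected wells without compound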
* = called active by the depositor; i = inactive; ? = inconclusive; · = not tested or not shown; & = joins results of further samples.

No.	smiles	PKD1 kinase inh	INS promoter inh	INS promoter inh cell count	HSV augment	HSV augment primary fold	GALR2 agonist	RGS16-Gao
1	O=C(CSc1ccccc1C(=O)O)NCc1ccccc1	-3	-36	152	i	0.93	·	99
2	C#CC1(NC(=O)NC(C)(C)C)CCCCC1	-2	·	·	i	0.95	·	97
3	COc1ccc2c(c1)CCC(C)N2C(=O)C(=O)c1c[nH]c2ccccc12 (configuration not stated)	·	·	·	i	0.85	·	89
4	CCOc1ccc(NC(=S)Nc2ccc(Br)cc2Cl)cc1	0	-53	100	i	1	·	105
5	O=C(Oc1ccccc1)c1c(Cl)cccc1P(=O)(O)O	0	9	54	i	0.98	-3.4	102
6	CCCNc1c(N)n(-c2ccccc2)c(=O)[nH]c1=O	-2	36	100	i	1	-2.9	105
7	CNC(=S)NNC(=O)c1ccccc1F	-8	-18	109	i	1	·	110
8	Cc1ccc(/C=C/C(=O)Nn2cnnc2)cc1	-1	-14	53	i	0.85	-2.6	106
9	CC(C)Cc1ccc(C(C)C(=O)Nc2ncccn2)cc1 (configuration not stated)	-6	·	·	i	0.99	·	99
10	CC(=O)Nc1cccc(NC(=O)c2c(-c3ccccc3)noc2C)c1	5	39	88	i	0.79	-3.3	108
11	CC(C)c1ccc(NC(=O)c2sccc2-n2cccc2)cc1	-3	27	103	i	0.87	·	105
12	CCCc1nnc(NC(=O)CN2CCOCC2)s1	-2	·	·	i	0.94	-1.1	109
13	O=C(CCc1ccc(S(=O)(=O)NCc2ccccc2)cc1)NCc1cccnc1	-4	35	98	i	0.97	-2.0	101
14	COc1ccc2oc(=O)c(-c3nnc(N)s3)cc2c1	5	-33	118	i	0.86	·	102
15	O=C(CSc1nc2ccccc2[nH]1)Nc1c(F)c(F)c(F)c(F)c1F	-1	-33	136	i	0.98	·	104
16	Cc1ccccc1C(OCCN(C)C)c1ccccc1 (configuration not stated)	1&-4	-29&47	113&103	i	0.94	-1.1	106&102
17	Cc1ccccc1-c1cnn(-c2cccc([N+](=O)[O-])c2)c1N	-3	·	·	i	0.9	·	101
18	CC1(CC(=O)N/N=C/c2ccc(-c3ccc(Cl)cc3)o2)OCCO1	7	·	·	i	1	0.0	101
19	O=C1NCCN1Cc1ccccc1	2	0	103	i	1.2	-0.7	99
20	Cc1cccc(-n2nc3c(c2NC(=O)c2ccc(Br)o2)CSC3)c1	5	7	70	·	·	0.1	111
21	CCCCSc1nnc2c(n1)[nH]c1ccccc12	-7	-23	71	i	1.1	-4.4	103
22	O=C(NC(=S)NCc1nc2ccccc2[nH]1)c1ccc(F)cc1	1	·	·	i	1	·	99
23	CC1=C(C(=O)OCc2ccccc2)C(c2ccco2)n2ncnc2N1 (configuration not stated)	0	30	80	i	0.96	-1.5	111
24	Cn1c(SCC(=O)NCc2ccccc2)nnc1C1CC1	0	·	·	i	1	-0.7	104
25	COCCn1c(-c2ccc(OC)cc2)cnc1SCC(=O)Nc1cccc2ccccc12	7	-2	56	i	1.1	0.6	113
26	O=C(COC(=O)/C=C/c1cccc(C(F)(F)F)c1)Nc1cccc2ccccc12	-1	-10	119	i	0.9	-1.2	92
27	O=C(NCc1ccco1)c1ccc(Cn2cc([N+](=O)[O-])cn2)o1	-11	-34	98	i	1.2	-0.9	104
28	Cc1cccc(SCC(=O)Nc2ccccc2[N+](=O)[O-])c1	-3	·	·	i	1.1	·	95
29	Cn1c(=O)oc2cc(S(=O)(=O)N3CCN(c4ccccc4)CC3)ccc21	2	45	163	i	1.2	-1.5	99
30	COC(=O)COc1ccc(NS(=O)(=O)c2cccc([N+](=O)[O-])c2)cc1	0	·	·	i	0.84	·	102
31	COc1ccc(-c2c(C(C)=O)c(C)nc3sc4c(=O)n(-c5ccc(C)cc5)nnc4c23)cc1	-6	-20	106	·	·	0.1	100
32	O=c1c2nnn(Cc3ccc(Cl)cc3)c2ncn1Cc1ccc(F)cc1	-5	56	127	i	0.9	-0.7	91
33	O=Cc1sc(=O)n(Cc2cccc(C(=O)O)c2)c1Cl	·	·	·	i	1.2	·	92
34	Cc1nc(SCC(=O)c2ccc(F)c(F)c2)[nH]c(=O)c1Oc1ccc(F)cc1	·	·	·	i	0.94	·	98
35	CS(=O)(=O)N(CCc1ccccc1)CC(=O)Nc1ccc2c(c1)OCO2	-2	19	117	i	0.87	-1.6	93
36	O=C(c1cccc(COCC(F)(F)C(F)F)c1)N1CCN(c2ccccc2)CC1	-8	0	78	i	0.95	-3.0	101
37	Cc1cc(NS(=O)(=O)c2ccc(NC(=S)NCc3ccccc3)cc2)no1	-5	-14	124	i	0.92	·	100
38	Cn1nc(C(C)(C)C)cc1C(=O)NNC(=O)c1ccccc1Cl	·	·	·	i	1.1	·	104
39	CCOC(=O)c1ccc(NC(=S)NCC(O)c2ccccc2)cc1 (configuration not stated)	-8	0	81	·	·	-1.1	98
40	COC(=O)Cn1c(=NC(=O)CN2C(=O)CCC2=O)sc2cc(S(N)(=O)=O)ccc21	-7	20	102	i	1	-0.8	99
41	C=CCN(CC=C)CCOc1cc(C)ccc1[N+](=O)[O-]	-1	5	73	i	1	·	102
42	CCCN(C(=O)C(=O)Nc1ccc2nc3n(c(=O)c2c1)CCCCC3)c1ccc(OCC)cc1	·	·	·	i	0.92	·	99
43	COc1ccc(C(=O)CC(=O)C(=O)Nc2cc(Cl)c(OC)cc2OC)cc1	-5	·	·	i	1.1	·	99
44	CC1CN/C(=C\C(=O)c2ccc(Br)cc2)C(=O)N1 (configuration not stated)	-8	8	85	i	0.9	0.6	107
45	O=C1CCc2ccc(NC(=O)C3CC3)cc2N1	-1	-27	113	i	0.89	·	107
46	Cc1cccc(NS(=O)(=O)c2cnc(Cl)c(Br)c2)n1	-2	·	·	i	0.98	-0.5	105
47	CCSC(=S)c1c(C)[nH]n(-c2ccccc2)c1=O	·	·	·	i	0.94	·	93
48	CCN(CC)C(=O)C1CCCN(Cc2cccc(F)c2)C1 (configuration not stated)	-7	30	84	i	0.87	-3.3	93
49	COc1ccc(S(=O)(=O)CCc2nnc(NC(C)=O)s2)cc1	6	·	·	i	0.89	·	90
50	CCSc1nnc(NC(=O)NC(CC)(C(F)(F)F)C(F)(F)F)s1	-4	·	·	i	0.82	-1.0	121
51	Cc1cc(=O)oc2c1c(C)nn2-c1ccc(Br)cc1	0	13	98	i	0.99	·	106
52	O=[N+]([O-])c1ccccc1O[C@@H]1O[C@H](CO)[C@H](O)[C@H](O)[C@H]1O	·	·	·	i	0.95	·	108
53	Cn1cc(CNC(=O)C2c3ccccc3Oc3ccccc32)cn1	-6	·	·	i	0.99	-1.5	98
54	Cc1cc(N)n(-c2ccc(Cl)cc2)n1	3	65	135	i	0.99	·	99
55	CCOC(=O)c1c(CSc2ccccc2)n(C)c2ccc(O)c(CN3CCOCC3)c12	-5	·	·	i	1	·	100
56	CCc1cccc(NC(=O)c2snc3c(=O)[nH]cnc23)c1	-1	·	·	i	1	-0.5	93
57	O=C(NC1CCCCC1)c1ccc(CNc2ccccc2)o1	-4	·	·	i	0.99	-0.6	96
58	N/C(Cc1cccs1)=N\OC(=O)COc1ccc(Br)cc1	4	·	·	i	1.1	-1.6	97
59	CCN(CC)c1ccc(C(=O)OCC(=O)Nc2cc3oc4ccccc4c3cc2OC)cc1	-8	·	·	i	0.94	-0.8	100
60	CN1C(C(=O)NCc2ccccc2)CC2Cn3c(nc4ccccc43)C21 (configuration not stated)	·	·	·	i	0.84	·	102

Remaining list, next part:
No.	smiles	PKD1 kinase inh	INS promoter inh	INS promoter inh cell count	HSV augment	HSV augment primary fold	GALR2 agonist	RGS16-Gao
61	O=S(=O)(N1CCOCC1)n1nnc2ccccc21	-1	-14	37	i	0.91	0.3	99
62	N#CCCN(Cc1ccncc1)C(=S)NC1CC2C=CC1C2 (configuration not stated)	·	·	·	i	1	·	95
63	O=C(CSc1nc2ccsc2c(=O)n1Cc1ccc(C(=O)O)cc1)NCC1CCCO1 (configuration not stated)	-14	-6	118	i	0.92	-2.0	100
64	Cc1cccc(N2N=C(C(=O)Nc3nc(C)cs3)CCC2=O)c1	-2	·	·	i	0.9	·	111
65	Cc1cccc(-n2c(O)c(C=Nc3ccc4c(c3)OCO4)c3ccccc3c2=O)n1	0	·	·	?	·	-1.4	105
66	COc1ccc(NS(=O)(=O)c2cccc(C(=O)N/N=C/c3cn(-c4ccccc4)nc3-c3ccccc3)c2)cc1	·	·	·	i	0.82	·	98
67	CCOC(=O)c1c2ccc(OCC(=O)N/N=C/c3ccc(Cl)cc3)cc2n2ccccc12	-3	·	·	·	·	-1.9	100
68	COc1ccccc1CN1C[C@@H]2C[C@@H](c3cccc(C)c3)N3CCC[C@@]23C1=O	-7	·	·	i	1.1	·	101
69	CCOc1ccccc1N(CC(=O)Nc1ccc(S(=O)(=O)N2CCOCC2)cc1)S(=O)(=O)c1ccc(Cl)cc1	-9	-7	77	i	0.99	-0.8	106
70	CC(C)CC(=O)OC1C(N2CCOCC2)c2c(ccc(/C=C/C(=O)N3CCOCC3)c2O)OC1(C)C (configuration not stated)	-12	-16	73	i	0.96	0.0	4
71	Fc1ccccc1/C=N/n1c(-c2cccnc2)n[nH]c1=S	·	·	·	i	0.93	·	100
72	CCOCCOC(=O)COc1ccc2c(-c3ccccc3)cc(=O)oc2c1	-11	25	123	i	1	-1.6	55
73	COC(=O)C(C(=O)Nc1ccccc1C)C1CCCCCC1 (configuration not stated)	-7	·	·	i	1	·	104
74	CCOc1cc(NC(=S)NCCCN2CCOCC2)c(OCC)cc1NC(=O)C1CCCCC1	-2	·	·	i	1	·	106
75	CCOc1ccccc1NC(=O)CC1Nc2cc(C)c(C)cc2NC1=O (configuration not stated)	-7	-41	144	i	1.1	-0.3	68
76	CCOc1ccc(-n2c(N)c(-c3nc4ccccc4[nH]3)sc2=S)cc1	0	10	149	i	1.1	0.1	101
77	COc1cccc(NC(=O)CNC(=O)c2ccccc2)c1	-1	-200	98	i	1	-1.6	101
78	COC(=O)c1ccc(/C=C(\C#N)c2nc3ccccc3s2)cc1	-4	-17	66	i	0.92	-1.0	97
79	Cn1nc(C(F)(F)F)c(-c2ccc(F)cc2)c1NC(=O)c1cccnc1	·	·	·	i	0.83	·	97
80	COc1cccc(-c2ccc(=O)n(CC(=O)Nc3ccc(C(=O)N4CCCC4)cc3)n2)c1	-3	-21	116	i	0.82	-0.1	69
81	Cc1ccccc1-n1c(SCc2cc(=O)n3ccccc3n2)nc2[nH]ncc2c1=O	-15	·	·	i	0.87	0.1	101
82	Cc1[nH]n(-c2ccc([N+](=O)[O-])cc2)c(=O)c1C=NCCc1c(C)[nH]c2ccccc12	-5	·	·	i	1	-1.1	103
83	COC(=O)CN1C(=O)CC(C)(C)S(=O)c2ccccc21 (configuration not stated)	-4	·	·	i	1	-2.0	105
84	Cc1nnc2ccc(-c3cccc(NC(=O)Cc4cccs4)c3)nn12	6	33	91	i	0.9	·	95
85	O=c1c2ccccc2nc(-c2cccs2)n1-c1cccc2ccccc12	-7	3	102	i	0.94	-0.6	109
86	CC(=O)c1cccc(NC(=O)c2ccc(N(C)S(C)(=O)=O)cc2)c1	1	-28	116	i	0.99	0.6	101
87	NC1=NC(=O)C2(COC(c3ccccc3Cl)OC2)S1 (configuration not stated)	-6	-40	127	i	1	-1.8	90
88	N=c1oc2cc(O)ccc2cc1C(=O)Nc1ccccn1	4	·	·	i	1.1	·	104
89	c1ccc(-n2nnnc2OCCOc2nnnn2-c2ccccc2)cc1	1	-154	63	·	·	-1.5	102

Rows are unselected; 1.3% or so of the library scored in one or more.
